Autofluor counter: compound fluorescence in toxin protease inhibitor counterscreen | compound autofluorescence counterscreen, microsphere flow cytometry; active compounds read high | fluorescence intensity (test concentration not listed) | 360,000 tested, 3.1% active;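 active = at least 3 SD above the mean of all compounds, about 16000 in these data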;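 note: 100 nL of 1 mM stock went into each well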
PrP UTR inh: suppresses PrP 5' UTR mRNA reporter expression; cell-based PrP 5' UTR mRNA reporter, plate reader; inhibition, % (test concentration not listed); 340,000 tested, 0.35% active;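 active = every replicate at 50% or more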;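 note: 0 = median of the neutral control wells; tested in H4 reporter cells; numbers are from one replicate; inactives centre near -14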
The depositor's hits bear a star; & = joins results of further samples. Not all compounds are listed. The share of hits here may be higher or lower than overall.

canonical_smiles | Autofluor counter | PrP UTR inh
CCOC(=O)C1=CC[C@@H](c2cccc(C)c2)N(S(=O)(=O)c2ccc(C)cc2)[C@H]1C(=O)OCC | 3317 | -11
O=C(c1ccccc1)N1CCCCC1 | 5558 | -2
C/C(=N\Nc1ccc(Cl)nn1)c1ccccc1O | 3749 | -24
O=c1[nH]nc(SC2CCCCC2)c(=O)[nH]1 | 3802 | -15
CCc1ccccc1-n1ncc(C(=O)Nc2ccc(OC)cc2)c1C | 3926 | -64
C[C@H]1COC(=O)[C@@H](CC(=O)OC(C)(C)C)C/C=C\C[C@H](CC(=O)NCCO)C(=O)N1 | 3675 | -26
O=C(O)C1Sc2[nH]c(=O)sc2C2c3ccc(O)cc3OC(=O)C12 (stereo unspecified) | 3478 | 0
CC(=O)OC1C(=O)N(Cc2ccccc2)C1c1ccc(C)cc1 (stereo unspecified) | 4102 | -3
O=C(O)c1cn(-c2ccc(F)cc2)c2cc(N3CCNCC3)c(F)cc2c1=O | 5328 | -4
C=CC[C@H](CC(=O)NCCO)C(=O)N[C@@H](COC(=O)[C@@H](CC=C)CC(=O)OC(C)(C)C)Cc1c[nH]c2ccccc12 | 4971 | -28
COc1ccc(S(=O)(=O)Nc2cccc3c2O[C@H](CN(C)S(=O)(=O)c2ccccc2)[C@@H](C)CN([C@H](C)CO)C3=O)cc1 | 4338 | -19
COc1ccc2sc(-c3ccccc3OC)c(-c3ccc(OCCN4CCCC4)cc3)c2c1 | 3716 | -23
Cc1cn(CC(=O)NCCCn2ccnc2)c(=O)[nH]c1=O | 3878 | -23
COCc1ccc(-c2c(-c3ccccc3OC)sc3cc4c(cc23)OCO4)cc1 | 3666 | -15
N#CC1C=Cc2c(ccc3ccccc23)N1C(=O)c1ccccc1 (stereo unspecified) | 3147 | 29
OCC[C@H]1C[C@H](O)[C@@H](O)[C@]2(Cc3ccccc3CO2)O1 | 3837 | -22
Cc1ccc(NC(=O)c2ncn(CCCNCc3ccccc3)n2)cc1C | 3574 | -32
O=C(CCN1C(=O)C2CC=CCC2C1=O)Nc1cccc(S(=O)(=O)N2CCCCC2)c1 (stereo unspecified) | 4084 | -22
CC(O)C1CCC2C3CCC4CC(O)CCC4(C)C3C(=O)CC12C (stereo unspecified) | 5890 | -9
CC[C@H](CO)Oc1cc(NCc2ccc(Cl)c(Cl)c2)c2ncn(C(C)C)c2c1 | 3595 | -1
COc1ccc([C@H]2CC(=O)C=C(c3ccc4c(c3)OCCO4)C2)cc1 | 4119 | -30
O=C(O)c1ccc(C=NN=Cc2ccco2)cc1 | 2907 | 62*
COC(=O)C(C(=O)OC)[C@@H]1C=C[C@H](C[N+](=O)[O-])N(C(C)=O)C1 | 3205 | -3
C=CC[C@H](CC(=O)OC(C)(C)C)C(=O)OC[C@@H]1CCCN1C(=O)[C@@H](CC=C)CC(=O)N[C@H](CO)Cc1ccccc1 | 3799 | -17
COC(=O)C1=C(c2cccc(OCc3ccccc3)c2)C[C@@H]2CC[C@H]1N2C(=O)NCCCc1ccccc1 | 4377 | -29
O=S(Cc1ccccc1)Cc1ccccc1 | 4147 | -6
CC(C)(C)OC(=O)C[C@@H]1C/C=C\C[C@H](CC(=O)N(CCO)Cc2ccccc2)C(=O)N2CCC[C@@H]2COC1=O | 3509 | -19
C[C@@H]1CN([C@@H](C)CO)C(=O)c2cc(NS(=O)(=O)c3ccc(Cl)cc3)ccc2O[C@H]1CN(C)Cc1ccncc1 | 4362 | -2
COc1ccc2c(c1)C(=O)N1[C@H]3c4cc(Cl)ccc4OC[C@@H]3[C@H](c3ccccc3)[C@]1(C)C(=O)N2 | 2821 | -19
C#CCOCCOCCOCCNc1nc(N2CCN(C(=O)[C@H](CC(N)=O)n3cc(C(N)[C@@H](C)CC)nn3)CC2)nc(N2CCN(C(=O)[C@H](CCC(=O)O)n3cc([C@@H](N)CCCCN)nn3)CC2)n1 (stereo partly specified) | 4149 | -5
CCN1C(=O)[C@H]2[C@@H](c3ccc(-c4ccc(OC)cc4)c(OC)c3)N[C@@](Cc3ccccc3)(C(=O)OC)[C@H]2C1=O | 4426 | -27
C/C(Nc1ccc(Cl)cc1)=C1/CCOC1=O | 4347 | -26
O=C1C2C3C=CC(C4CC34)C2C(=O)N1/N=C/c1ccc(-c2ccc([N+](=O)[O-])cc2)o1 (stereo unspecified) | 2361 | -21
CC1=CC2OC3CC4OC(=O)C=CC=CC(C(C)O)OCC(O)C5(C)OC5C(=O)OCC2(CC1O)C4(C)C31CO1 (stereo unspecified) | 2928 | 94*
COc1ccc(-c2sc3ccccc3c2/C=C/c2ccc(OC)c(OC)c2)cc1 | 2957 | -15
O=C(NCCc1ccc2c(c1)OCCO2)c1cccc(S(=O)(=O)N2CCCC2)c1 | 2995 | -24
Cc1nnc2n1N=C(c1ccc(F)cc1F)CS2 | 3688 | -15
COc1ccc([C@H]2CC(=O)C=C(c3ccccc3)C2)cc1OC | 3986 | 10
CC1(C)COC(=S)N1CCC#N | 3700 | -16
O=C1OC[C@@H]2CCCN2C(=O)[C@@H](CC(=O)N(CCO)Cc2ccccc2)C/C=C\C[C@H]1Cc1ccc(F)cc1 | 2771 | 1
O=C1C=C(c2cccc3c2sc2ccccc23)C[C@@H](c2ccc(F)cc2)C1 | 3076 | -16
O=C1NC(c2cccc(OCc3ccccc3)c2)Nc2ccccc21 (stereo unspecified) | 3716 | 30
O=C1c2cccc(NCCCNCCO)c2C(=O)c2cccc(NCCCNCCO)c21 | 2093 | -46
C#CC1(O)CCC2C3CCC4=CC(=O)CCC4=C3C=CC21C (stereo unspecified) | 4208 | 2
COc1ccc(NC(=O)N(C)C[C@H]2Oc3ccc(NS(=O)(=O)c4cccs4)cc3C(=O)N([C@@H](C)CO)C[C@@H]2C)cc1 | 3773 | -4
CC(C)(C)OC(=O)C[C@H]1C/C=C\C[C@@H](CC(=O)N(CCO)Cc2ccccc2)C(=O)NC[C@@H](c2ccccc2)OC1=O | 3723 | -18
C=C1C(C)C2C(Cc3ccccc3)NC(=O)C23OC(=O)/C=C/C(O)CCCC(C)C/C=C/C3C1O (stereo unspecified) | 3876 | 14
F[B-](F)(F)COCc1ccccc1Br | 3849 | -20
Cc1ccc(NCCCn2cnc3c(OCc4ccccc4)ncnc32)cc1C | 3630 | -25
COC(=O)C1=C(c2ccc(F)cc2OCc2ccccc2)C[C@@H]2CC[C@H]1N2C(=O)NCc1ccc(C(C)(C)C)cc1 | 4153 | -21
C/C(=N\NS(=O)(=O)c1ccc(Br)cc1)c1ccc(-n2ccnc2)cc1 | 3303 | -27
C=CCNC(=S)N/N=C/c1ccc(C)c([N+](=O)[O-])c1 | 1948 | -14
N#CCCCC1(CCCC#N)OCCO1 | 4240 | -15
CC(C)CCCCCCCCCCCCC(=O)NCC(=O)NC1C(O)C(O)C(Nc2ncnc3nc[nH]c23)OC1C(O)CO (stereo unspecified) | 2811 | 89*
C/C(=N\NC(=O)c1cc2c(s1)CCC(C)C2)c1ccc[nH]1 (stereo unspecified) | 3473 | -70
O=C(O)C1=CC2C=C(Cl)C=CC2OC1=O (stereo unspecified) | 2955 | -2

6 entries picked at random from those above, as already listed:
canonical_smiles | Autofluor counter | PrP UTR inh
C/C(=N\NC(=O)c1cc2c(s1)CCC(C)C2)c1ccc[nH]1 (stereo unspecified) | 3473 | -70
C/C(=N\NS(=O)(=O)c1ccc(Br)cc1)c1ccc(-n2ccnc2)cc1 | 3303 | -27
CC(C)CCCCCCCCCCCCC(=O)NCC(=O)NC1C(O)C(O)C(Nc2ncnc3nc[nH]c23)OC1C(O)CO (stereo unspecified) | 2811 | 89*
COC(=O)C1=C(c2ccc(F)cc2OCc2ccccc2)C[C@@H]2CC[C@H]1N2C(=O)NCc1ccc(C(C)(C)C)cc1 | 4153 | -21
C=CCNC(=S)N/N=C/c1ccc(C)c([N+](=O)[O-])c1 | 1948 | -14
N#CCCCC1(CCCC#N)OCCO1 | 4240 | -15

Among those listed so far, 2 have a furan ring, fused or not:
canonical_smiles | Autofluor counter | PrP UTR inh
O=C(O)c1ccc(C=NN=Cc2ccco2)cc1 | 2907 | 62*
O=C1C2C3C=CC(C4CC34)C2C(=O)N1/N=C/c1ccc(-c2ccc([N+](=O)[O-])cc2)o1 (stereo unspecified) | 2361 | -21

Further records follow.
canonical_smiles | Autofluor counter | PrP UTR inh
C=CC[C@@H](CC(=O)OC(C)(C)C)C(=O)OC[C@@H]1CCCN1C(=O)[C@@H](CC=C)CC(=O)N(CCO)Cc1ccccc1 | 4210 | -14
O=C1NC(Cc2ccc(O)cc2)c2nc3cc(Cl)ccc3c(=O)n2-c2cc(Cl)ccc21 (stereo unspecified) | 3661 | 3
Cc1[nH]c2ccccc2c1CN1CCCCC1 | 3136 | -19
O=C1c2ccccc2C(=O)c2c(/C=C/N3CCCCC3)ccnc21 | 3814 | -31
COc1ccc(C=NN=C2c3ccccc3-c3ccccc32)cc1O | 3901 | 30
Cc1noc(C)c1NC(=O)Nc1ccc2c(c1)C(=O)N([C@H](C)CO)C[C@H](C)[C@@H](CN(C)S(=O)(=O)c1ccc(F)cc1)O2 | 3756 | -21
OC[C@H]1O[C@@H](n2cnc3c(NC4CCCC4)nc(Cl)nc32)[C@H](O)[C@@H]1O | 6129 | 0
F[B-](F)(F)c1cc2cc(Br)ccc2s1 | 3603 | 7
Cc1cc(=O)n2c3c(c4c(cc13)c(CN(C)C)cc(=O)n4C)OC2 | 3653 | -9
Cc1ccc2c(c1)S(=O)(=O)N(C)C(c1ccccc1)=C2 | 3929 | -16
Cc1ccc(N/N=C(\Cc2nc3ccccc3[nH]2)c2ccccc2)cc1 | 2788 | 15
COc1ccc(Cl)cc1C(=O)NNC(=O)c1[nH]c(C)c(C(C)=O)c1C | 3262 | -13
CN(CC(=O)Nc1cccc(F)c1)C(=O)C1CCN(C(=O)c2ccc(Cl)cc2)CC1 | 2964 | -19
Cn1nnnc1Sc1ncnc2scc(-c3ccc(Cl)cc3)c12 | 3474 | -21
CC(C)NC(=O)Nc1ccc2c(c1)C(=O)N([C@H](C)CO)C[C@H](C)[C@@H](CN(C)C(=O)NC(C)C)O2 | 2890 | -9
O=C1C=C(c2cccc3c2oc2ccccc23)C[C@@H](c2ccc(F)cc2)C1 | 2926 | 7

The results go on.
The line under a structure holds: Autofluor counter, PrP UTR inh
- O=C(CCN1CCCCC1)N1CCc2c([nH]c3ccccc23)C1c1cccnc1 (stereo unspecified)
    3359, -23
- CC(C)C[C@@H](CN1CCC[C@@H]1CN1C(=O)C(=O)NC[C@@H]1Cc1ccccc1)N1C[C@H](Cc2ccc(O)cc2)N(CC2CCCCC2)C(=O)C1=O
    3971, -22
- CC(C)(C)OC(=O)C[C@@H]1C/C=C\C[C@H](CC(=O)N(CCO)Cc2ccccc2)C(=O)N[C@H](Cc2ccccc2)COC1=O
    3615, -6
- Cc1nc(Nc2ccc(Cl)c(Cl)c2)sc1C(/C=C/c1ccc2c(c1)OCO2)=NNc1ccc([N+](=O)[O-])cc1[N+](=O)[O-]
    3202, -9
- Cc1noc(C)c1S(=O)(=O)Nc1ccc2c(c1)C(=O)N([C@H](C)CO)C[C@H](C)[C@@H](CN(C)Cc1ccc(C(=O)O)cc1)O2
    3121, 0
- COC(=O)C1=C(c2cccc(C#N)c2)C[C@@H]2CC[C@H]1N2C(=O)N1CCC(O)CC1
    4210, -11
- COc1ccc2sc(-c3ccc(SC)cc3)c(C#CC(C)(C)O)c2c1
    3060, -28
- O=C1C=C(c2ccc(Cl)c(C(F)(F)F)c2)C[C@@H](c2ccc(Cl)cc2)C1
    3377, -5
- NC1(C#Cc2ccc3oc(=O)c(-n4cc(-c5ccsc5)nn4)cc3c2)CCCCC1
    4595, -7
- CC(C)c1ccc2c(c1)CC[C@H]1[C@](C)(CN)CCC[C@]21C
    5972&6293, -37&-14
- C[C@@H]1O[C@@H](O[C@H]2[C@H](O[C@H]3C[C@]4(C)C(C[C@@H](O)C5C([C@]6(C)CC[C@@H](C(C)(C)O)O6)CC[C@]54C)[C@@]4(C)CC[C@H](O)C(C)(C)C34)O[C@H](CO)[C@@H](O)[C@@H]2O)[C@H](O)[C@H](O)[C@H]1O (stereo partly specified)
    3457, -13
- O=C1/C(=C\c2ccc(Cl)cc2)CCC1CNc1ccc(Cl)cc1 (stereo unspecified)
    3973, -19
- C#CCOCCOCCOCCNc1nc(N2CCN(C(=O)[C@H](CCCCN)n3cc(CN)nn3)CC2)nc(N2CCN(C(=O)[C@H](CCCCN)n3cc(CN)nn3)CC2)n1
    4563, -14
- COc1ccc(CNS(=O)(=O)CCNCc2ccco2)cc1
    3888, -12
- O=C1CCC[C@@H]2Cc3nc4ccccc4cc3[C@@H]3CCN1[C@H]23
    3772, -18
- C[C@H](CO)N1C[C@H](C)[C@@H](CN(C)C(=O)Nc2ccc(C(F)(F)F)cc2)Oc2ccc(NS(=O)(=O)c3ccccc3)cc2C1=O
    3850, -11
- COc1ccc(C=NNC(=S)NC23CC4CC(CC(C4)C2)C3)cc1OC
    3224, -8
- CCOC(=O)c1c2c(n(Cc3ccccc3)c1C)C(=O)C(=O)c1ccccc1-2
    3175, -35
- O=C(Nc1ccc(C(=O)N2CCCCC2)cc1)C1CCCC1
    3075, 10
- CCC(=O)N1CCc2cc(S(=O)(=O)NCCC(=O)N3CC=C(c4ccccc4)CC3)ccc21
    22498*, 8
- Cc1cn([C@H]2C[C@H](O)[C@@H](CCC(=O)NCc3ccccc3)O2)c(=O)[nH]c1=O
    3983, -15
- Cc1ccc(-c2cc(-c3ccccc3)nc(N/N=C/c3cccnc3)n2)cc1
    15984, -35
- C=C[C@@H]1c2cccc(C)c2N(S(=O)(=O)c2ccc(C)cc2)[C@H](c2ccc(OC(C)=O)cc2)C1(C#N)C#N
    4445, -8
- O=C(C[C@H]1C/C=C\C[C@@H](NC(=O)OCC2c3ccccc3-c3ccccc32)C(=O)O[C@@H](c2ccccc2)CNC1=O)N[C@H](CO)Cc1ccccc1
    4092, -25
- Cc1ccc2c(c1)C(=O)N1[C@H]3c4ccccc4OC[C@@H]3[C@H](c3ccccc3)[C@]1(C)C(=O)N2
    4045, -73
- O=C(C[C@H]1C/C=C\C[C@@H](Cc2ccc(F)cc2)C(=O)OC[C@H]2CCCN2C1=O)NCCO
    3934, -13

Bioassay records from PubChem BioAssay.
